Screening results: PubChem BioAssay, National Center for Advancing Translational Sciences (NCATS)
Rango release inh: qHTS Assay for Inhibitors of RanGTP induced Rango (Ran-regulated importin-beta cargo) - Importin beta complex dissociation | Snurportin-1 (Homo sapiens) + GTP-binding nuclear protein Ran (Homo sapiens) + Importin … | Biochemical FRET Rango-importin beta, RanGTP-induced dissociation | Potency, µM (series often up to 46.1 µM), for inactives: at the highest dose activity change, negative = inhibition | 340,000 compounds, 0.071% hits | AID 540253, 2011; active means falling FRET ratio curve, often poorly fitted, with flat reads before Ran was added; inconclusive means other falling curves, or compound fluorescence or quenching; inactive means flat or rising ratio curve;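 note: potency is the fitted concentration of half-maximal effect; % of control where 0% means no effect; nearly all actives have a fitted effect of over 45% in size; -100% = wells without RanGTP and RCC1; the record marks most hits as doubtful in a second field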
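FRET read at 45 min, room temperature: inhibitors block the CFP/YFP signal rise when RanGTP (0.6 uM Ran, 2 mM GTP, 0.2 uM RCC1) frees Rango (0.1 uM) from importin beta (0.25 uM). Pre-read after 5 min compound exposure flags interference.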
miR-21 FLuc: qHTS Assay for Modulators of miRNAs and/orActivators of miR-21 | HeLa miR-21 FLuc reporter, luciferase, 48 h | Potency, µM (top dose mostly 38.3 µM), for the others: at the highest dose reporter change, positive = more light | 340,000 tested, under 10 active; active = well fitted rising curve with a large enough effect; inconclusive = small, poorly fitted or top-dose-only effect; inactive = no such curve, though single readings can be large or run the other way;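 note: % of control where 0% means no effect; miR-21 action dims this reporter so a rising signal means less miR-21 action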
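HeLa miR-21-FLuc reporter line, endogenous miR-21; 2000 cells/well in DMEM/10% FBS; compound titration up to ~40uM final, 48 h, 37 degree Celsius; luciferase detection reagent, 15 min lysis, CCD luminescence.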
Rango-impB inh: qHTS Assay for Inhibitors of Rango (Ran-regulated importin-beta cargo) - Importin beta complex formation | Rango CFP/YFP FRET sensor + importin beta, 45 min | AID 540263, 2011 | Importin subunit beta-1 (Homo sapiens), Q14974 | Potency, µM (highest dose often 92.2 µM), inactives show at the top dose inhibition of complex formation | 340,000 compounds, 0.031% hits; active = rising FRET ratio curve, often small or poorly fitted; inconclusive = mostly compound fluorescence or quenching in the first reads; inactive = flat curves in all reads;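 note: potency is the fitted concentration of half-maximal effect; 0% = DMSO wells and 100% = buffer wells lacking importin beta; nearly all actives have a fitted effect of over 15% in size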
Target sequence (Q14974 whole entry, looked up): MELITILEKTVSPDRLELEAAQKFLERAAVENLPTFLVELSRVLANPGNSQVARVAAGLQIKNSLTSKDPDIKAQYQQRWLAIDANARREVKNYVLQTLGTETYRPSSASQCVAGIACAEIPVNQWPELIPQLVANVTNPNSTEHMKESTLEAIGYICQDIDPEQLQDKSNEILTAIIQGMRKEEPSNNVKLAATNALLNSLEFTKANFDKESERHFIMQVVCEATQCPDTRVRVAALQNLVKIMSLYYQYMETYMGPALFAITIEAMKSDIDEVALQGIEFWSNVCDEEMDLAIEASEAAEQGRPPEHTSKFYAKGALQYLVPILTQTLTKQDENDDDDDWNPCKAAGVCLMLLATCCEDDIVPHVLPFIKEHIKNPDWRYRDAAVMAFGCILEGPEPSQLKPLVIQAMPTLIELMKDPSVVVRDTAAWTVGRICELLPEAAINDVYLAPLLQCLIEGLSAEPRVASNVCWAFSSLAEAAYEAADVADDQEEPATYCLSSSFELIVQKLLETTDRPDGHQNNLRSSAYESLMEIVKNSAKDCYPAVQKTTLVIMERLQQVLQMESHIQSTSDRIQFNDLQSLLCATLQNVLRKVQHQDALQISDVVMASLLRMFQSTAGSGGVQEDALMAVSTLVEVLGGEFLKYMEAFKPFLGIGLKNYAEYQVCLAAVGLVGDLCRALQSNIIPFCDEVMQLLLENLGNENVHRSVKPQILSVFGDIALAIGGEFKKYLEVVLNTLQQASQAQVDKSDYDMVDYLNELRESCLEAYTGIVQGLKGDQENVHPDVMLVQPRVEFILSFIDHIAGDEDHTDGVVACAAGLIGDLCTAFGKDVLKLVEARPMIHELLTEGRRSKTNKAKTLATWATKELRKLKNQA
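FRET biosensor Rango (snurportin 1 IBB between N-terminal EYFP and C-terminal Cerulean), 50 nM in PBS/1 mM DTT/0.02% Tween-20/0.1% BSA, preincubated 5 min RT with compound; 0.125 microM importin beta added, 45 min RT, CFP/YFP FRET ratio read.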
GLA inh pH 4.5: qHTS Assay for Inhibitors of Human alpha-Galactosidase at pH 4.5 | Alpha-galactosidase A (Homo sapiens), P06280 | purified enzyme, 4-MU-alpha-Gal fluorescence, pH 4.5 | activity change, negative = inhibition, % at 105 µM | 230,000 tested, under 10 active; inconclusive = small, poorly fitted or top-dose-only inhibition, or a rising curve; inactive = flat fitted curve, though single readings scatter; no compound was filed as active;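 note: 0% = full activity with enzyme and -100% = basal without enzyme; dose as in the result columns while the protocol names 77 µM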
* = called active by the depositor; ? = inconclusive; . = not tested or not shown; & = joins results of further samples; [ ] = another dose, or the depositor's remark. An excerpt, so the mix of outcomes need not match the whole.

Rango release inh	miR-21 FLuc	SMILES	Rango-impB inh	GLA inh pH 4.5
.	-1%	Oc1ccc(Nc2nc(-c3ccc4ccccc4c3)cs2)cc1	.	2
-10%	-19%	Cc1cccc(N(CC(N)=O)C2SC(=O)N(c3ccccc3)C2=O)c1 (centres undefined)	7.4%	6
6%	-10%	COc1ccc2c(c1)c(CC(=O)OCC(=O)O)c(C)n2C(=O)c1ccc(Cl)cc1	-1.2%	5&1&3
1%	-1%	C=CCNC(=S)NNC(=O)c1cc(O)ccc1O	-0.3%	0
-2%	-31%	O=C(NCCCc1ccccc1)C(=O)c1c[nH]c2ccccc12	-3.3%	.
32%	-2%	Cc1cccc(S(=O)(=O)Nc2nc3ccccc3nc2NCC2CCCO2)c1 (centres undefined)	-0.8%	-12
-1%	0%	COCCCN(C(=O)c1cccnc1SC)c1c(N)n(Cc2ccccc2)c(=O)[nH]c1=O	-2.0%	1
-8%	-6%	COc1ccc(C(=O)NCCCN=C2NS(=O)(=O)c3ccccc32)cc1	-1.2%	.
-9%	.	O=S(OCCN1CCCC1)C(c1ccccc1)c1ccccc1 (centres undefined)	-0.4%	.
1%	-7%	CCCCN(CC)CCNC(=O)C1c2cc(OC)c(OC)cc2C(=O)N2CCc3ccccc3C12 (centres undefined)	-1.5%	24
-1%	-18%	Cc1cc(C)nc(SCc2cc(=O)c(OC(=O)c3ccc(Cl)c([N+](=O)[O-])c3)co2)n1	-1.0%	5
4%	-2%	CC(=O)N1c2ccc(S(=O)(=O)N3CCC(C(=O)NC4CCCCC4)CC3)cc2CC1C (centres undefined)	2.4%	.
-13%	.	O=C(Cc1ccsc1)Nc1ccc2c(c1)OCO2	?	.
5%	-1%	Cc1cc(C)nc(SCC(=O)OC(C)C(=O)Nc2ccccc2)n1 (centres undefined)	-2.3%	.
-2%	0%&-12%	CCOC(=O)C1CCCN(S(=O)(=O)c2ccc3c(c2)N(C)C(=O)CC(=O)N3C)C1 (centres undefined)	-1.2%	.
9%	-39%	Oc1ccccc1Nc1ncnc2c1oc1ccccc12	-0.2%	0
-6%	0%	CCn1cc(/C=C(\NC(=O)c2ccccc2)C(=O)N2CCOCC2)c2ccccc21	2.2%	.
.	-11%	O=C(CCCn1c(=O)oc2ccccc21)NC1CCCCCC1	.	1
27%	-8%	NC(=O)c1ccc(C(=O)c2ccc([N+](=O)[O-])cc2)cc1	2.6%	-2
-3%	2%&4%	CC(=O)Nc1ccc(NS(=O)(=O)c2ccc(Cl)s2)cc1	-2.9%	1
39%	0%	CN(c1ccccc1C(=O)O)S(=O)(=O)c1ccc2[nH]c(=O)[nH]c2c1	-0.3%	.
-2%	-25%	COC(=O)c1cc(-c2ccc(NC(C)=O)cc2)nc2ccccc12	?	-7
-8%	-2%	CC(C)N1CCC(N2CCN(CCCc3ccccc3)CC2CCO)CC1 (centres undefined)	-3.3%	5
-16%	-2%	Cn1c(=O)[nH]c(=O)c2c1nc(N/N=C/C(Br)=C/c1ccccc1)n2CCO	?	-16
-4%	3%	N#CC1=C(Nc2ccccc2Cl)SC(c2ccccc2O)NC1=O (centres undefined)	3.7%	-1
6%	.	O=C(Nc1ccc(F)cc1)C(c1ccccc1)N1CCN(CC(=O)N2CCCC2)CC1 (centres undefined)	-3.1%	.
?	-2%	COc1ccc(CCNC(=O)CCC(=O)n2ncc3ccc(Cl)cc32)cc1OC	-1.4%	.
?	-5%	CCn1nc(NC(=O)c2ccncc2)c2cc3ccccc3nc21	?	4
0%	.	C=CC[C@H](CC(=O)NCCO)C(=O)NC[C@@H](OC(=O)[C@H](CC=C)CC(=O)OC(C)(C)C)c1ccccc1	-4.4%	.
-9%	-3%	COC(=O)c1ccc(N2C(=O)c3cc(N4CCOCC4)c([N+](=O)[O-])cc3C2=O)cc1	0.9%	4
-14%	-12%	CCOc1ccc(C(=O)Nc2cccc3ncccc23)cc1Br	0.2%	0
-10%	-4%	Cc1c(Cl)cccc1NC(=S)NC1CCN(C(C)C)CC1	0.5%	-10
-13%	-5%	O=C(CN(C(=O)Cn1nnc(-c2ccccc2F)n1)c1cnc2ccccc2c1)NCC1CCCO1 (centres undefined)	-2.8%	-1
-21%	.	COc1ccc(-c2cccc(NC(=O)c3ccc4c(c3)OCO4)c2)nn1	0.3%	.
16%	23%	Cn1c(=O)oc2cc(S(=O)(=O)N3CCc4ccccc43)ccc21	-3.3%	-7
-2%	-9%	COC(=O)c1nn(-c2ccccc2)c(Sc2ccccc2)c1/C=N/O	0.4%	-3
3%	-4%	CCOC(=O)C1(Cc2cccc(F)c2)CCN(C(=O)c2ccoc2C)CC1	0.5%	-5
2%	2%	O=C(NCC1CCCO1)C1CCN(c2ccc(S(=O)(=O)N3CCCC3)cc2)CC1 (centres undefined)	-0.3%	6
?	-39%	O=C(N/N=C/c1cccc(C(F)(F)F)c1)c1ccc(O)cc1	8.1%	-17
6%	11%	CC1CCN(CCOCCOc2ccccc2-c2ccccc2)CC1	-0.7%	1

Single records (already shown). Order of values: Rango release inh, miR-21 FLuc, Rango-impB inh, GLA inh pH 4.5
`COC(=O)c1nn(-c2ccccc2)c(Sc2ccccc2)c1/C=N/O` reads -2%, -9%, 0.4%, -3
`N#CC1=C(Nc2ccccc2Cl)SC(c2ccccc2O)NC1=O` (centres undefined) reads -4%, 3%, 3.7%, -1
`COc1ccc(-c2cccc(NC(=O)c3ccc4c(c3)OCO4)c2)nn1` reads -21%, ., 0.3%, .
`O=C(Nc1ccc(F)cc1)C(c1ccccc1)N1CCN(CC(=O)N2CCCC2)CC1` (centres undefined) reads 6%, ., -3.1%, .
`CCOc1ccc(C(=O)Nc2cccc3ncccc23)cc1Br` reads -14%, -12%, 0.2%, 0

(listing goes on)
Rango release inh	miR-21 FLuc	SMILES	Rango-impB inh	GLA inh pH 4.5
?	-17%	O=C(O)c1ccc(-c2ccc(/C=N/Nc3ccc([N+](=O)[O-])cc3)o2)cc1	?	-17
12%	-23%	Clc1nc2nc3n(c2nc1Cl)CCC3	-2.7%	-1
8%	1%	CN(c1ccccc1)S(=O)(=O)c1cccc(NC(=O)CN2CCc3ccccc3C2)c1	-0.9%	-8
-14%	.	COc1ccc(C2CC(=O)Oc3cc(O)ccc32)cc1 (centres undefined)	-0.1%	-20
17%	.	O=C(Cn1c(=O)cnc2ccccc21)NNC(=O)c1ccccc1Cl	-4.2%	.
-9%	.	COc1ccc(O)c(C(=O)c2cnn(C(=O)c3ccc(C)cc3)c2)c1	0.6%	.
?	15%	CCN(CC)c1ccc(-c2nn3c(-c4cccnc4)nnc3s2)cc1	?	-23
-16%	-5%	CN(C)c1cccc(N=C2C=C(N3CCOCC3)CC(C)(C)C2)c1	?	-15
6%	-4%	CCCN(CCC)CCCNC(=O)c1cn(C)c2ccc(S(=O)(=O)N(C)C3CCCCC3)cc2c1=O	0.4%	.
1%	1%	COc1cc(C2Nc3ccccc3C(=O)N2c2ccc3c(c2)OCCO3)ccc1OCC(C)C (centres undefined)	-0.6%	-12
4%	-3%	CCOC(=O)c1cnc2c(c(C)nn2C)c1Oc1ccccc1F	-0.2%	-5
1%	-8%	Cc1ccc(-c2nc3ccc(C(=O)O)cc3nc2-c2ccc(C)cc2)cc1	-2.2%	24
-15%	-11%	CC1(C)CC(=O)c2c(-c3cccs3)n[nH]c2C1	-1.3%	8
-16%	3%	CCOc1ncccc1C(=O)OCC(=O)Nc1cc(S(=O)(=O)N(CC)CC)ccc1C	-4.4%	0
-12%	4%	CCOC(=O)N1CCN(C(=O)C(NC(=O)c2ccco2)C(C)C)CC1 (centres undefined)	-2.8%	.
-29%	-1%	CCOC(=O)c1cc(C)[nH]c(=O)c1C#N	?	?
2%	4%	O=C1NC(c2cccc([N+](=O)[O-])c2)Oc2ccccc21 (centres undefined)	3.6%	3
3%	-29%	CCSc1nnc(NC(=O)C(C)C)s1	0.1%	-1
-8%	-15%	CNC(=O)CCN(Cc1ccco1)S(=O)(=O)c1ccc(OC)c(OC)c1	4.4%	1
.	27%	N#C/C(=C/c1ccc(Br)o1)C(N)=S	.	-2

Random excerpt: 2 entries already listed.
Rango release inh	miR-21 FLuc	SMILES	Rango-impB inh	GLA inh pH 4.5
-16%	3%	CCOc1ncccc1C(=O)OCC(=O)Nc1cc(S(=O)(=O)N(CC)CC)ccc1C	-4.4%	0
-9%	.	COc1ccc(O)c(C(=O)c2cnn(C(=O)c3ccc(C)cc3)c2)c1	0.6%	.

Following part:
Rango release inh	miR-21 FLuc	SMILES	Rango-impB inh	GLA inh pH 4.5
-1%	-16%	Cc1ccc2oc(=O)n(CCOc3ccccc3C)c2c1	2.0%	-1
0%	1%	COC(=O)c1ccccc1N1C(=O)[C@@H]2C(c3ccc(Br)cc3)=NO[C@@H]2C1=O	0.0%	2
-15%	-3%	Cc1ccc(CNC(=O)CCSCc2cccc(F)c2)cc1	-1.9%	.
9%	.	COc1cccc(-c2ccc3ncnc(NCc4cccnc4)c3c2)c1	2.0%	.
25%	-7%	Cc1cccc(OCC(O)CN2CCN(CCN3C(=O)c4cccc5cccc(c45)C3=O)CC2)c1C (centres undefined)	0.8%	?
1%	.	CNC[C@@H]1Oc2c(NS(C)(=O)=O)cccc2C(=O)N([C@@H](C)CO)C[C@H]1C	1.5%	.
-19%	-35%	Cc1ccccc1C(=O)NC1CCCCCCC1	-1.2%	.
1%	0%	CSCCC(NC(=O)/C(=C/c1ccc(F)cc1)NC(C)=O)C(=O)O (centres undefined)	-0.6%	6
10%	-6%	CO/N=C/NC(=O)c1c(OC)ccnc1Oc1cccc(C(F)(F)F)c1	6.0%	0
1%	-11%	NNC(=O)c1cc(C23CC4CC(CC(C4)C2)C3)nc2ccccc12	-0.8%	.
?	-3%	CC(C)NC(=O)c1cc2nc(-c3ccco3)cc(C(F)(F)F)n2n1	?	4
?	-5%	Cc1c(-c2ccccc2)c(P(=O)(N2CCOCC2)N2CCOCC2)c2ccccn12	-0.1%	26
16%	-4%	COc1ccc(CCNc2nc(C)nc3c2nnn3Cc2ccccc2)cc1OC	?	.
-6%	-10%&-3%	CN(C)c1cc2c(cc1NS(=O)(=O)c1ccccc1)n(C)c(=O)n2C	-2.2%	.
-9%	1%	CCS(=O)(=O)c1ccc(O)c(NC(=O)NC2CCCCC2)c1	-0.4%	4
.	-1%	COc1ccc(O[C@H]2C=C[C@@H](c3ccccc3)O[C@@H]2COC(=O)CCC(C)=NO[C@@H]2O[C@H](COC(C)=O)[C@@H](OC(C)=O)[C@H](OC(C)=O)[C@H]2OC(C)=O)cc1	.	-18
-6%	2%	O=C(O)CC(NC(=O)C1CCCCC1)c1cc([N+](=O)[O-])ccc1Cl (centres undefined)	0.8%	1[21.1 µM]
0%	-7%	CC(=O)Cn1ncc(N2CCOCC2)c(Br)c1=O	-4.0%	8
1%	-20%	COc1ccc(/C=N/NC(=O)CC2N=C(Cc3ccccc3)NNC2=O)cc1OC (centres undefined)	-0.2%	2
-7%	-10%	Cc1ccc(-n2c(Cc3cccn3C)nnc2SCC(=O)N2CCN(c3ccccc3)CC2)cc1	-5.0%	0
-7%	.	CCOc1ccccc1N	-0.7%	.

Seven compounds from above, limited to miR-21 FLuc and Rango-impB inh.
structure | miR-21 FLuc | Rango-impB inh
CSCCC(NC(=O)/C(=C/c1ccc(F)cc1)NC(C)=O)C(=O)O (centres undefined) | 0% | -0.6%
CO/N=C/NC(=O)c1c(OC)ccnc1Oc1cccc(C(F)(F)F)c1 | -6% | 6.0%
NNC(=O)c1cc(C23CC4CC(CC(C4)C2)C3)nc2ccccc12 | -11% | -0.8%
CC(C)NC(=O)c1cc2nc(-c3ccco3)cc(C(F)(F)F)n2n1 | -3% | ?
Cc1c(-c2ccccc2)c(P(=O)(N2CCOCC2)N2CCOCC2)c2ccccn12 | -5% | -0.1%
COc1ccc(CCNc2nc(C)nc3c2nnn3Cc2ccccc2)cc1OC | -4% | ?
CN(C)c1cc2c(cc1NS(=O)(=O)c1ccccc1)n(C)c(=O)n2C | -10%&-3% | -2.2%
